Calb FLC = C. albicans growth modulation with fluconazole; C. albicans CaCi-2 (fluconazole-resistant clinical isolate) + fluconazole, Alamar Blue growth, 48 h; growth inhibition, % (no concentration beside the values); hit rate 0.57% among 300,000;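 active means most replicates above 75%; inconclusive means exactly half above 75%; inactive means most below 75%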;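 further: all wells also contain fluconazole at 8 µg/ml as a sub-toxic cotreatment; 0% = median of DMSO wells and 100% = median of geldanamycin control wells; wells of about 8 µL received 7.5 nL stock; the first replicate is given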
Beta apoptosis = beta cell apoptosis inhibition; hit rate 0.8% among 300,000; INS-1E cytokine-induced death, ATP luminescence, 48 h; percent of positive-control rescue, neutral wells zero; protection from apoptosis, % (no concentration beside the values);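 active means all replicates at 75% or more, or half of them and the mean; inconclusive means half reach 75% but not the mean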;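 further: 0% = cytokine-treated negative control wells and 100% = positive control rescue; higher means more ATP so stronger rescue from cytokine killing; wells of about 40 µL received 100 nL stock; the first replicate is given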
ALR inh = inhibitors of human sulfhydryl oxidase ALR; P55789; purified ALR, DTT oxidation, H2O2 HRP-luminol luminescence; inhibition, % (no concentration beside the values); hit rate 3.8% among 290,000;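 active means mean and each replicate at 75% or more; inconclusive means only one of the two met; inactive means neither met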;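 further: stock transfer was 7.5 nL into about 7.5 µL; 0% = neutral wells and 100% = wells with inactivated enzyme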
Target sequence (P55789 whole entry, looked up): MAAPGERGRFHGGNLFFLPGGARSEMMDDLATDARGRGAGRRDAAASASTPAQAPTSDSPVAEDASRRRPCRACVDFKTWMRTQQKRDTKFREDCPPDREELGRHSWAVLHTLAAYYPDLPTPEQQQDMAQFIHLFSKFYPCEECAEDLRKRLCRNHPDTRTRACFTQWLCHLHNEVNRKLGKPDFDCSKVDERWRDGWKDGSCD
RanGTP-Impb inh = inhibitors of RanGTP-importin-beta interaction, primary screen, biochemical, FRET, CFP-Ran, YFP-importin-beta, homogeneous; hit rate 1.1% among 300,000; inhibition, % (concentration not given with the values); cell-free CFP-Ran/YFP-importin-beta FRET ratio;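 active means most replicates above 15%; inconclusive means exactly half above 15%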;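 further: 0% = DMSO wells and 100% = Ran loaded with GDP instead of GTP; wells of about 40 µL received 100 nL stock; the first replicate is given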
FGF22 binding = binders of recombinant human FGF22 by thermal shift; hit rate 1.5% among 340,000; calls only at 9.99 µM; SYPRO orange fluorescence; percent of sucrose octasulfate shift, DMSO zero; Q9HCT0;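 active means melting point raised past a set limit in the mean and every replicate; inconclusive means no clear call; three in four hits are not shown here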
Target sequence (Q9HCT0 whole entry, looked up): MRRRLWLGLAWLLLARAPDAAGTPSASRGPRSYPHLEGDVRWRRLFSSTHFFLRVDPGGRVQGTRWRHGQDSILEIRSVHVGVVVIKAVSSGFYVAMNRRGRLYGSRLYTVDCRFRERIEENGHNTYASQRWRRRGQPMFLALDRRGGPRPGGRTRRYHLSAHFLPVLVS
MLL AF4-AF9 inh = inhibitors of human MLL-AF4/AF9 interaction | AID 651704 | inhibition, % at 10 µM | hit rate 0.47% among 350,000 | AlphaScreen, biotin-AF4 peptide binding to FLAG-AF9;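 active means every replicate reaching a set inhibition limit, whatever the replicate mean, cut at about 25% in these data; inconclusive means mean inhibition reaches that limit but some replicates miss it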;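 further: 0% = plate neutral control median and 100% = total signal loss; the record names both 10 and 1 µM as test concentration; the first replicate is given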
Target sequence (P42568 whole entry, looked up): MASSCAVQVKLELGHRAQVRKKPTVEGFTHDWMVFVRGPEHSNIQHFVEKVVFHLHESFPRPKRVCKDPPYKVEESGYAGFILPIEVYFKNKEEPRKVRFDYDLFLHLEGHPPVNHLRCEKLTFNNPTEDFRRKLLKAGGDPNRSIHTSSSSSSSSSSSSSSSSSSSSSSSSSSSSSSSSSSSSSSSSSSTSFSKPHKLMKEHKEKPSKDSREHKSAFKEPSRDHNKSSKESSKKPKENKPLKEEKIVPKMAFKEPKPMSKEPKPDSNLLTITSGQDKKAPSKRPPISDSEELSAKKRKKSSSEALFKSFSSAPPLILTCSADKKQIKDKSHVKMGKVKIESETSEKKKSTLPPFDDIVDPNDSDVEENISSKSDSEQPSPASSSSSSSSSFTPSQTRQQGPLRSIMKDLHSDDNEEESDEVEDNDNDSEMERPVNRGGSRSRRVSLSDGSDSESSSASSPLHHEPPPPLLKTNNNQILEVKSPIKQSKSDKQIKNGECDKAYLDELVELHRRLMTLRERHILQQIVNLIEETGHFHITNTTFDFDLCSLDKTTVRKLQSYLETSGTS
rRNA inh HTS = inhibitors of bacterial rRNA selective over humanized ribosomes. E. coli WT GFP vs humanized-ribosome RFP mutants, fluorescence, 24 h; hits give low values; DMSO median 0, no signal -100. GFP signal change (wild-type ribosome), % (test concentration not listed). hit rate 1.6% among 350,000;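 active means significant combined selectivity score with lowered wild-type GFP, culture density cut under 30%, mutant RFP and density less affected; inactive means any of these conditions unmet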; further: one replicate is shown; some compounds called inactive have numbers as strong as hits
T cruzi inh = blocks replication of Trypanosoma cruzi; T. cruzi beta-gal in NIH3T3, luminescence, 90 h; inhibition, % (no concentration beside the values); hit rate 1.4% among 300,000;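 active means mean inhibition across valid replicates above about 55%, limit read from the data; inconclusive means mean below that limit but half or more replicates reach it; inactive means mean below it, under half of replicates reach it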;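 further: signal also drops with host cell toxicity which is not excluded here; 0% = plate median of DMSO wells and 100% = zero luminescence signal; higher percent means less beta-gal luminescence so fewer parasites; stock transfer was 50 nL into about 50 µL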
rRNA inh HTS OD600 = also measured in rRNA inh HTS; calls as there; OD600 change, %; measured here: OD600 growth;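 optical density of the mix in the first replicate; 0 = DMSO median and -100 = no signal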
rRNA inh HTS RFP = recorded beside rRNA inh HTS, whose call it bears; RFP signal change, %; measured here: RFP humanized mutant strains;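 first replicate; 0 = DMSO median and -100 = no signal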
* hit, by the source's call; i = inactive; u = inconclusive; x = not tested or not shown; + = active, no number. Not all compounds are listed, so the mix of outcomes need not match the whole.

SMILES	Calb FLC	Beta apoptosis	ALR inh	RanGTP-Impb inh	FGF22 binding	MLL AF4-AF9 inh	rRNA inh HTS	rRNA inh HTS OD600	rRNA inh HTS RFP	T cruzi inh
CC(C)N(CC(=O)Nc1ccc(Cl)cc1C(F)(F)F)C(=O)CCl	-15	-6	x	2.1	i	0.1	22	6	2.9	83*
CCN(CC(=O)Nc1ccc(NC(C)=O)cc1)C(=O)c1oc2ccccc2c1C	-5	-2	-13	-0.6	i	-37	2	5	-1.9	2
CCc1nnc(NC(=O)c2c(O)c3c([nH]c2=O)CCCC3)s1	39	-2	-12	u	x	x	x	x	x	-13
Cc1ccc(S(=O)(=O)NCC(=O)N(CC(=O)NCc2ccco2)Cc2ccco2)cc1	2	-8	20	-0.7	i	-0.3	13	5	-1.9	-9
Cc1cc(=O)oc2cc(O[C@@H]3O[C@H](CO)[C@H](O)[C@H](O)[C@H]3O)ccc12	x	-4	-1	3.1	i	-1.5	18	7	1.4	-8
Cc1cc(C)c(NC(=O)c2ccc(CNS(=O)(=O)c3cc(C(F)(F)F)ccc3Cl)cc2)c(C)c1	-2	10	-1	0.5	i	-12	-1	-3	1.3	2
Cc1cc(NCCN2CCOCC2)n2c(nc3ccccc32)c1C#N	0	1	-8	5.3	x	x	x	x	x	10
c1ccc2c(c1)COC(CN1CCCCC1)OC2	-8	-2	-9	2.2	i	-1.2	-3	11	-0.6	-11
Cc1ccc(F)cc1NC(=O)N1CCN(c2ccnc3cc(Cl)ccc23)CC1	-2	2	x	1.9	x	-1.5	-18	-28	-4.0	8
Cc1cccc(OCCn2ccnc2)c1C	27	-7	-11	-4.0	i	-0.4	-16	-20	-8.7	-8
C=C(C)[C@@H]1CC[C@]2(C(=O)O)CC[C@]3(C)[C@H](CC[C@@H]4[C@@]5(C)CC[C@H](O)C(C)(C)[C@@H]5CC[C@]43C)[C@@H]12	x	x	-2	-0.2	i	-1.6	x	x	x	-17
CC1CN(C(=O)c2ccccc2)C(=Nc2cccc(S(=O)(=O)N(C)C)c2)S1 (stereo not given)	-1	-8	-4	1.8	x	x	x	x	x	-22
CCOC(=O)CNC(=O)CSc1nc(Cc2ccccc2)nc2ccccc12	1	-4	40	-3.0	i	-0.2	2	1	-0.7	4
CCN(CC)CCn1c2c(c(SCC(=O)NCc3ccccc3)nc1=O)CCC2	3	-10	-32	2.5	i	0.4	7	11	-1.1	-4
CCc1cc2c(=O)c(-c3nc4ccccc4n3C)coc2c(CN2CCN(C)CC2)c1O	-5	0	-14	-1.6	x	-4.1	x	x	x	-16
CCn1cc(S(=O)(=O)NCc2ccc3c(c2)OCO3)cn1	-1	-13	-8	1.2	i	-1.2	3	13	-1.0	-1
NC(=O)c1nsc(C(=O)N(c2ccc(F)cc2)C(C(=O)NCC2CCCO2)c2ccc3ncccc3c2)c1N (stereo not given)	-26	2	-9	1.6	i	7.4	0	-1	-0.4	-29
CCN(CC)S(=O)(=O)c1ccc(-c2cn3cc(Cl)ccc3n2)cc1	-3	3	-2	0.8	i	-1.8	3	3	1.9	4
Fc1ccc2[nH]c3c(NCCN4CCOCC4)ncnc3c2c1	16	7	4	-1.5	x	x	x	x	x	19
O=C1COc2ccc(NC(=O)N3CCN(c4ccc(F)cc4)CC3)cc2N1	-16	2	10	-1.3	x	x	x	x	x	-11
O=C(CC1c2ccccc2Oc2ccccc21)Nc1ccccc1C(F)(F)F	2	-2	-8	-1.8	x	x	x	x	x	33
NS(=O)(=O)c1ccc(NC(=O)/C(=C/c2ccncc2)NC(=O)c2ccccc2)cc1	-8	-5	-1	u	i	0.9	5	5	3.7	-4
C=CCn1c(COc2ccc(CC)cc2)nnc1SC/C(O)=C(\C#N)c1nc2ccccc2[nH]1	2	-5	-6	u	x	x	x	x	x	3
Cc1nn(-c2ccccc2)c(Cl)c1C(=O)NCC1CCCO1 (stereo not given)	x	-2	x	x	i	1.2	7	6	-0.2	x
Cc1ccc(S(=O)(=O)N2CCN(C(=O)CSc3nc4ccccc4o3)C2)cc1	3	-9	x	5.3	x	x	x	x	x	11
CCOCCOC(=O)C1=C(C)N(C)C(=O)NC1c1ccccc1F (stereo not given)	-8	-3	-1	u	x	x	5	12	1.0	-4
O=c1c(-c2ccc(F)cc2)[n+]([O-])c2ccccc2n1OCc1ccccn1	1	-6	10	-1.0	x	0.1	11	6	-0.6	-13
COC(=O)c1scc(C)c1NC(=O)C1CCCCC1	-27	-2	-4	2.1	x	x	x	x	x	-7
COc1ccc(Cl)cc1NC(=S)Nc1cccnc1	6	0	0	-1.2	i	0.7	-9	-15	-3.7	-4
COc1cccc(OC)c1Oc1ccc(C(F)(F)F)cn1	0	-8	-3	4.1	i	0.7	6	4	0.9	-1
Cc1cc(C(=O)O)ccc1-c1ccc(/C=C2\NC(=O)N(Cc3ccccc3Cl)C2=O)o1	-2	6	12	22*	x	x	x	x	x	-5
COC(=O)C1=C(C)N(Cc2ccccc2)C(=NCc2ccco2)N[C@H]1c1cccc(F)c1	x	-3	-3	x	i	8.4	9	-1	18	x
COC(=O)c1ccccc1CSc1nsc(/C=C/N(C)C)c1C#N	8	-6	x	-2.8	x	x	-13	-7	5.5	-7
CCn1ncc([N+](=O)[O-])c1C(=O)N1CCCC1	3	-2	10	1.8	x	x	x	x	x	-14
COc1ccc(C(=O)COC(=O)CCN=C2NS(=O)(=O)c3ccccc32)c(OC)c1	4	x	-12	-1.9	i	-19	5	10	-2.8	-10
CCOC(=O)Cc1csc(NC(=O)c2cccc(OC)c2)n1	-4	6	-3	-2.0	x	x	x	x	x	-5
CC(/C=C/c1ccccc1)=N\NC(=S)NC(C)C	-33	9	22	1.9	i	12	-20	-20	-2.6	7
Cc1cc(SCC(=O)NCC(c2cccs2)N2CCOCC2)c(C)cc1Br (stereo not given)	6	-2	-4	x	i	4.5	-7	-56	2.9	3
CCN(C(=O)COC(=O)c1cc(S(=O)(=O)N2CCc3ccccc32)ccc1OC)C1CCS(=O)(=O)C1 (stereo not given)	19	x	-2	-1.1	i	0.6	-4	-11	1.4	2
CCCC1C(c2ccc(OC)cc2)C(C#N)(C#N)C2(C#N)CC1(N)NC2=O (stereo not given)	-2	4	27	-4.5	x	x	x	x	x	-12
CC(=O)c1cccc(NS(=O)(=O)c2cc3c(cc2C)N(C(C)=O)CCO3)c1	-9	-1	0	1.3	i	-2.1	12	13	4.2	-7
CCn1c(CCC(N)=O)nnc1SCC(=O)c1cc(C)n(C2CC2)c1C	x	-2	2	x	i	0.7	x	x	x	x
CCOc1ccc(CN2CCN(C(=O)c3ccccc3)CC2)cc1	-4	0	0	-1.4	x	x	x	x	x	7
COc1ccc(C(=O)Nc2ccc(Cl)c(S(=O)(=O)N3CCOCC3)c2)cc1	x	2	-1	x	i	-1.8	-31	-26	5.4	x
Cc1ccc(C(C(=O)NC2CCCC2)N2CCCCC2)cc1 (stereo not given)	-1	x	-21	4.3	i	3.7	11	9	-2.6	-3

Part of the list above in another layout:
SMILES | Calb FLC | Beta apoptosis | ALR inh | RanGTP-Impb inh | FGF22 binding | MLL AF4-AF9 inh | rRNA inh HTS | rRNA inh HTS OD600 | rRNA inh HTS RFP | T cruzi inh
Cc1cc(SCC(=O)NCC(c2cccs2)N2CCOCC2)c(C)cc1Br (stereo not given) | 6 | -2 | -4 | x | i | 4.5 | -7 | -56 | 2.9 | 3
CCN(C(=O)COC(=O)c1cc(S(=O)(=O)N2CCc3ccccc32)ccc1OC)C1CCS(=O)(=O)C1 (stereo not given) | 19 | x | -2 | -1.1 | i | 0.6 | -4 | -11 | 1.4 | 2
CCCC1C(c2ccc(OC)cc2)C(C#N)(C#N)C2(C#N)CC1(N)NC2=O (stereo not given) | -2 | 4 | 27 | -4.5 | x | x | x | x | x | -12
CC(=O)c1cccc(NS(=O)(=O)c2cc3c(cc2C)N(C(C)=O)CCO3)c1 | -9 | -1 | 0 | 1.3 | i | -2.1 | 12 | 13 | 4.2 | -7
CCn1c(CCC(N)=O)nnc1SCC(=O)c1cc(C)n(C2CC2)c1C | x | -2 | 2 | x | i | 0.7 | x | x | x | x
CCOc1ccc(CN2CCN(C(=O)c3ccccc3)CC2)cc1 | -4 | 0 | 0 | -1.4 | x | x | x | x | x | 7

RanGTP-Impb inh: what is marked active above
mol	ALR inh	RanGTP-Impb inh	FGF22 binding	MLL AF4-AF9 inh	rRNA inh HTS	rRNA inh HTS OD600	rRNA inh HTS RFP
Cc1cc(C(=O)O)ccc1-c1ccc(/C=C2\NC(=O)N(Cc3ccccc3Cl)C2=O)o1	12	22*	x	x	x	x	x

Following part:
SMILES	Calb FLC	Beta apoptosis	ALR inh	RanGTP-Impb inh	FGF22 binding	MLL AF4-AF9 inh	rRNA inh HTS	rRNA inh HTS OD600	rRNA inh HTS RFP	T cruzi inh
Cc1cc(N=CC2=C(O)CC(C)(C)CC2=O)no1	0	-1	-2	-0.3	x	x	x	x	x	0
C[n+]1ccc(/C=N/Nc2nc(Cl)c(C#N)c(Cl)c2Cl)cc1	30	x	82*	11	i	12	-66	-78	-33	-12
CCn1c2ccccc2c2cc(NC(=O)c3coc(=O)c(Br)c3)ccc21	0	36	-3	-5.2	i	8.6	-12	11	9.5	6
C/C(=C/C(=O)NCc1ccccc1)C(=O)O	24	4	0	0.7	x	x	x	x	x	-6
Cc1cc(=O)oc2cc(OCC(=O)NCc3cccnc3)ccc12	u	-5	-30	-5.2	x	x	x	x	x	-10
Cc1ccccc1NC(=O)NC1(C(=O)N2CCN(C)CC2)CCCCC1	-4	-2	-2	0.8	i	-3.2	4	6	-2.5	-5
CCOc1cc(/C=C\c2[nH]c(=O)[nH]c(=O)c2[N+](=O)[O-])ccc1OC(C)CC (stereo not given)	21	-1	15	-2.4	x	x	x	x	x	-32
O=[N+]([O-])c1cccc(/C=N/NC2=NCCCCC2)c1	-15	-2	-27	1.2	i	2.9	-2	5	-4.2	-3
O=C(COC(=O)Cc1ccsc1)Nc1ccc(Cl)cn1	x	-4	-1	x	i	2.1	x	x	x	x
COc1cccc(C(=O)NCC(=O)N/N=C/c2cccs2)c1	-5	1	1	0.7	i	-6.9	-3	6	0.2	-13
Cc1ccc(Nc2nc(N)c3ccccc3n2)cc1Cl	69	x	-1	3.8	+	7.7	-28	-63	19	46
COc1ccccc1OCC(=O)NCc1n[nH]c(=O)c2ccccc12	7	x	-11	-0.6	i	-0.1	1	5	-2.1	-4
CSc1ccc(/C=C(/Sc2nnc(-c3ccccc3)o2)C(=O)O)cc1	37	9	-1	25*	i	0.4	2	11	-0.8	-6
Cc1ncc([N+](=O)[O-])n1CC(=O)Nc1ccc(OC(F)(F)Cl)cc1	-12	6	-5	0.9	i	-2.6	4	0	2.2	-9
COc1ccccc1CNC(=O)C(C)Sc1ccc(C)cc1 (stereo not given)	-4	-5	-18	2.9	i	-1.5	-24	-23	-2.2	-1
Cc1nn(C)c(C(=O)NNC(=S)NCC(C)C)c1Cl	-1	-12	55	-3.9	x	x	x	x	x	-3
CC(=O)Nc1c(Cl)cnn(-c2ccccc2)c1=O	-10	4	-2	3.5	i	0.8	4	8	-0.4	-20
CC12CCC(=O)N1C(C(=O)NCCc1ccc(F)cc1)CS2 (stereo not given)	7	5	2	-1.2	i	-3.0	5	11	2.3	-11

High-throughput results (PubChem BioAssay)
